# RecA intein inh = Mtb RecA intein splicing inhibitors, primary screen, biochemical, fluorescence, HTS. cell-free RecA intein splicing. inhibition, %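 (about 9 µM by stock and volumes)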. 0.75% of 290,000 active; in the data active means inhibition above about 30%; inconclusive means no clear call, values can overlap the other calls;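 further: 0% = vehicle wells and 100% = reference inhibitor control wells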
# Target sequence (P9WHJ3 whole entry, looked up): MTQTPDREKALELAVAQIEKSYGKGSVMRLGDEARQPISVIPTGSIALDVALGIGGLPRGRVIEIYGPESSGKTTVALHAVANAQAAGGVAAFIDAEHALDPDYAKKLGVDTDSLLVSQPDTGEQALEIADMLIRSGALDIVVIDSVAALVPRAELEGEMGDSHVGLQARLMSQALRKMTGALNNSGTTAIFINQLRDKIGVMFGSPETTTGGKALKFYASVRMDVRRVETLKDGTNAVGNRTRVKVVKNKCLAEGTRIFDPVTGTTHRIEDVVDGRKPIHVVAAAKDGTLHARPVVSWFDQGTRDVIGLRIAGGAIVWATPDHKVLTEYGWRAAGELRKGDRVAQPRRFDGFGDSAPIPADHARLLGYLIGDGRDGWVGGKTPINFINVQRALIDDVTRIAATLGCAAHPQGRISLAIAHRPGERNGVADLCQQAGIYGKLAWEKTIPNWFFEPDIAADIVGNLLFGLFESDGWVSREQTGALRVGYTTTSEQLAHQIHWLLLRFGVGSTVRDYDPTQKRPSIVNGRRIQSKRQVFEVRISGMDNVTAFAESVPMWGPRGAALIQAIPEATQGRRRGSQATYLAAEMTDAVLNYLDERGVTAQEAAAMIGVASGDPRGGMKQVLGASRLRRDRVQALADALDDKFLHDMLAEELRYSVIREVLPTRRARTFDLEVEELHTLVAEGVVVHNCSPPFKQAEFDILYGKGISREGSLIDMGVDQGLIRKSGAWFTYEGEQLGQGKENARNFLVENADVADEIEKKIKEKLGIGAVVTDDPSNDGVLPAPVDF
# Mtb betalactam = beta-lactam sensitization of Mtb H37Rv, H37Rv; M. tuberculosis H37Rv growth with meropenem, percent inhibition; hits of this screen are not shown here; inhibition, % at 25 µM; 0.27% of 330,000 active; AID 434955, 2010;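 active means about 74% or more and at least 40 points above the plate without the antibiotic, then above 30% in a dose series; inconclusive means first-round hits that could not be retested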;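 further: growth measured after seven days incubation then overnight dye step; 0% = bacteria only wells and 100% = bacteria with antibiotic; twin plates without the antibiotic show which effects depend on it; some results filed as inactive read as strong as hits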
# YopH inh = YopH tyrosine phosphatase inhibitors, primary screen, biochemical, fluorescence Ex485/Em525; inhibition, %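 (about 10 µM by stock and volumes)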; 0.16% of 140,000 active; YopH tyrosine phosphatase [Yersinia enterocolitica];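 active means inhibition of 50% or more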;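 further: controls were vehicle for no effect and minimum signal wells for full effect; inactives centre near -20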
# Arbovirus inh = antivirals against arbovirus infection, primary screen, cell-based, full library, 10K replicate subset. AID 1251, 2008. arbovirus infection cell-based antiviral screen. inhibition, % at 10 µM. 0.37% of 200,000 active;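 active means inhibition from about 30%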;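 further: bluetongue infection of BSR cells; cell survival read as ATP light after 72 h; 0% = infected wells without compound and 100% = uninfected wells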
# Mtb H37Rv = M. tuberculosis H37Rv growth inhibitors, H37Rv strain (AID 1626). one-dose inhibition, % at 10 µM; IC50 in µM for titrated hits. M. tuberculosis H37Rv growth inhibition; higher % means a stronger effect. 0.95% of 220,000 active;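 active means confirmed in a dose series; inconclusive means inhibition above 80% but not taken into the dose series; inactive means below 80% or under 30% at every dose of the series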;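 further: bacteria incubated seven days before Alamar blue readout; 0% = bacteria only wells and 100% = bacteria with antibiotic wells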
# Arbovirus inh repeat = recorded beside Arbovirus inh, whose call it bears; inhibition, %; measured here: 10K subset replicate screen; many hits read low in the repeat;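 first of two repeat runs on a subset; 0% = infected and 100% = uninfected wells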
# An asterisk follows results filed as active; ? = inconclusive; · = not tested or not shown.
SMILES,RecA intein inh,Mtb betalactam,YopH inh,Arbovirus inh,Mtb H37Rv,others
Nc1nc(Nc2ccc(Cl)cc2)nc(NCCO)c1[N+](=O)[O-],4.0,-3.4,·,·,1.5%,
COc1ccc(C)cc1NC(=O)C(OC(=O)Cn1cnc2c1c(=O)n(C)c(=O)n2C)c1ccccc1 (stereo not given),-1.1,-1.1,·,·,·,
CCn1c(Cc2ccccc2)nnc1SCC(=O)Nc1ccccc1O,1.5,-12.1,·,2.0,3.1%,
O=C(CCCCl)NC(=S)Nc1cc(C(F)(F)F)ccc1N1CCOCC1,6.4,-4.2,-23.4,9.8,-4.0%,
CO/N=C(/CNC(=O)c1ccc(Cl)cc1Cl)c1ccc(Cl)cc1,-0.5,-1.2,-13.4,-0.1,·,
Cc1onc(-c2ccccc2Cl)c1C(=O)Nc1sc2c(c1C#N)CCC2,3.7,3.7,-30.5,-4.0,-3.1%,
COc1cc(C2NC(=O)NC(c3ccccc3)=C2C(C)=O)c(Br)cc1OCC(N)=O (stereo not given),0.5,-3.5,·,·,·,
Cc1cc(Cc2ccc([N+](=O)[O-])cc2)c(C)cn1,-0.7,0.0,·,·,·,
O=C(Oc1ccc(OC(=O)c2ccncc2)cc1)c1ccncc1,1.8,12.2,·,·,·,
Cc1ccc(-c2nc3ncccc3o2)cc1N,-2.4,2.7,·,·,·,
CCOC(=O)N/N=C/c1c(C)nn(-c2cccc(C(F)(F)F)c2)c1Cl,4.5,7.5,-25.4,-12.1,8.4%,
Cc1cc(C)n(Cc2ccc(Cl)c(Cl)c2)c(=O)c1S(=O)(=O)c1ccccc1,1.5,·,-19.6,-8.2,·,
COc1ccc(NC(=O)c2cc(-c3ccc(C)cc3)on2)cc1OC,-1.3,9.6,·,·,·,
CC1(c2ccc3noc(-c4ccccc4)c3c2)OCCO1,0.7,21.2,-27.1,9.3,-5.5%,
CCC(C)(C(=O)Nc1ccccc1C)N(C(=O)CNC(C)=O)c1ccccc1C (stereo not given),0.9,-9.7,-27.8,6.0,-1.4%,
CCOC(=O)C(Cc1ccccc1)c1ccnc2nc(N)nn12 (stereo not given),1.5,-2.2,·,5.8,3.6%,
O=C(C1CCN(S(=O)(=O)c2ccc3c(c2)OCCO3)CC1)N1CCc2ccccc21,0.4,-8.8,-48.0,-8.0,2.8%,
Cc1nn(C(C)(C)C)c(OC(=O)CC(C)C)c1S(=O)(=O)c1ccccc1,8.3,2.7,·,·,·,
COc1cc(C(=O)N(C)C2CCCN(Cc3ccccc3F)C2)cc(OC)c1OC (stereo not given),-1.1,3.2,·,·,·,
OCCOc1ccc(C2=NCCO2)cc1,-1.2,-6.6,-25.5,3.2,-0.1%,
Cc1cc(=O)[nH]c(SCC(=O)N2CCC(C(N)=O)CC2)n1,-1.6,-1.7,-25.0,3.7,0.2%,
COC(=O)C1SCC2C(=O)N(Cc3ccc(Cl)c(Cl)c3)CC(=O)N21 (stereo not given),0.2,9.2,·,8.5,3.8%,
O=C(CSc1nnc(CNC(=O)c2ccccc2F)o1)NCC1CCCO1 (stereo not given),0.6,0.6,-9.2,0.1,1.6%,
CCCCC(=O)Nc1nnc(S(=O)(=O)N(C)Cc2ccco2)s1,-1.7,-6.6,·,·,·,
CCn1c(=O)c(=O)[nH]c2cc(C(=O)N3CCN(c4ccccc4F)CC3)ccc21,4.1,-1.3,-26.7,3.3,7.4%,

# Random excerpt: seven compounds from above
SMILES,RecA intein inh,Mtb betalactam,YopH inh,Arbovirus inh,Mtb H37Rv,others
CCn1c(Cc2ccccc2)nnc1SCC(=O)Nc1ccccc1O,1.5,-12.1,·,2.0,3.1%,
Cc1nn(C(C)(C)C)c(OC(=O)CC(C)C)c1S(=O)(=O)c1ccccc1,8.3,2.7,·,·,·,
COc1ccc(C)cc1NC(=O)C(OC(=O)Cn1cnc2c1c(=O)n(C)c(=O)n2C)c1ccccc1 (stereo not given),-1.1,-1.1,·,·,·,
COc1ccc(NC(=O)c2cc(-c3ccc(C)cc3)on2)cc1OC,-1.3,9.6,·,·,·,
O=C(CCCCl)NC(=S)Nc1cc(C(F)(F)F)ccc1N1CCOCC1,6.4,-4.2,-23.4,9.8,-4.0%,
COC(=O)C1SCC2C(=O)N(Cc3ccc(Cl)c(Cl)c3)CC(=O)N21 (stereo not given),0.2,9.2,·,8.5,3.8%,
CCCCC(=O)Nc1nnc(S(=O)(=O)N(C)Cc2ccco2)s1,-1.7,-6.6,·,·,·,

# New compounds follow.
SMILES,RecA intein inh,Mtb betalactam,YopH inh,Arbovirus inh,Mtb H37Rv,others
CSc1nsc2nc(=O)c(/C=C3\C=Nc4ccccc43)c(N)n12,-3.2,-7.1,·,38.0*,30.2%,
CC(=O)Nc1sc(N)nc1-c1ccccc1,-1.7,-1.9,0.3,-9.8,-5.1%,Arbovirus inh repeat=-23.2
CCOC(=O)C1CC2CC(C1)CN(C(=O)C1CCCCC1)C2 (stereo not given),-1.3,-6.8,·,0.2,-5.9%,
CCOC(=O)c1nc(NCc2ccccc2F)c2ccccc2n1,0.8,9.6,·,-4.1,1.2%,
O=C(COC(=O)c1cc(Cl)ccc1O)NNC(=O)c1ccc([N+](=O)[O-])cc1,-2.8,0.1,·,·,·,
CC(C)CCNC(=O)NC(=O)COC(=O)C1CCN(S(=O)(=O)c2ccccc2F)CC1,-3.1,0.1,-11.0,-0.5,-0.1%,
CNC(=O)COC(=O)c1ccc(Cl)c(S(=O)(=O)N2CCCC2)c1,0.4,-1.0,·,13.4,-7.6%,
Cc1c(C(=O)Nc2nc3ccccc3[nH]2)oc2c(Cl)cccc12,0.3,96.9,4.3,-27.1,?,
O=C1OC(c2ccc(Br)cc2)=N/C1=C\c1ccco1,-0.3,80.0,·,16.8,45.4%,
Cc1ccc(NC(=O)CC2NCCNC2=O)cc1 (stereo not given),2.6,-14.5,-22.4,5.8,1.7%,
O=C1CC(c2ccccc2)c2ccccc21 (stereo not given),-1.6,0.9,·,-1.4,-6.3%,
CCc1ccc2c(c1)c1nc(C)sc1n2CC,7.9,21.2,-27.0,1.6,13.4%,
CC(C)(C)c1cc2nc3c(c(=O)n2[nH]1)CN(Cc1ccccc1)C3=O,·,34.1,·,·,-9.9%,
O=C(Nc1cccc(S(=O)(=O)N2CCCCC2)c1)c1ccc(S(=O)(=O)C(F)F)cc1,1.2,3.3,·,0.7,6.1%,
CC(C)OC(=O)CSc1nc(N2CCOCC2)c2c(c1C#N)CC(C)(C)OC2,0.3,76.6,·,·,·,
CC(OC(=O)C1CC=CCC1C(N)=O)C(Cl)=C(Cl)Cl (stereo not given),-2.7,-12.6,-5.8,-2.9,-6.7%,Arbovirus inh repeat=7.5
CN(C(=O)CSc1nc(-c2ccc(C(C)(C)C)cc2)c(C#N)c(=O)[nH]1)C1CCCCC1,9.4,2.3,·,·,·,
Cc1ccc(Cn2c(CCNc3nc(-c4ccc(Cl)c([N+](=O)[O-])c4)cs3)nc3cc(C(=O)NCCCO)ccc32)cc1,14.8,18.1,·,·,2.2%,
Cn1c(NCc2ccco2)nc2c1c(=O)n(Cc1ccc(Cl)c(Cl)c1)c(=O)n2C,7.7,0.7,-39.0,10.4,6.8%,
O=C(c1ccco1)N1CCN(C(=O)c2cc(Cl)nc3ccccc23)CC1,2.1,-6.7,·,·,·,
COc1ccc(NS(=O)(=O)c2csc(C(=O)N3CCCC3)c2)c(OC)c1,-2.3,10.9,·,·,·,
CC(CCc1ccccc1)NC(=O)/C=C/c1ccc(Cl)cc1 (stereo not given),2.7,5.9,-0.2,19.4,0.5%,
CCN(CC)CCNc1nc(-c2ccc(OC(F)F)cc2)c(C)s1,6.8,4.1,·,-21.3,0.5%,
CS(=O)(=O)N1CCN(c2ccccc2NC(=O)Cc2ccccc2)CC1,-0.5,-0.7,-11.7,-0.9,-2.1%,
COc1ccc(C2N(C(C)=O)CCCN2S(=O)(=O)c2ccc(C)cc2)cc1 (stereo not given),-0.6,-5.9,·,·,·,

# (next part)
SMILES,RecA intein inh,Mtb betalactam,YopH inh,Arbovirus inh,Mtb H37Rv,others
Cc1sc2nc[nH]c(=S)c2c1-c1ccccc1,4.6,81.6,·,-11.7,32.3µM*,
O=C1NC2(CCCCCC2)C(=O)N1Cc1ccc(Br)cc1,2.0,-4.4,·,·,·,
CCC(C)[C@H](NC(=O)NCc1ccccc1)C(=O)O (stereo not given in full),-1.7,1.5,-50.1,1.4,2.7%,
CCN(CC(=O)NCc1ccc(F)cc1)S(=O)(=O)c1ccc(C)cc1,-0.1,1.4,·,·,·,
O=C1c2ccccc2C(=O)N1CSc1nnc(Nc2ccccc2F)s1,-2.5,7.0,-25.5,-13.3,-4.6%,
O=C(NCc1nc(-c2ccc(C(F)(F)F)cc2)no1)Nc1ccc(F)cc1F,0.9,4.1,·,·,8.4%,
CCOC(=O)Cc1csc(NC(=O)Cc2ccccc2)n1,1.3,0.5,·,3.1,-3.3%,
O[C@H]1C2CCC1C(N1CCCCC1)CC2 (stereo not given in full),-1.1,-3.8,-26.2,7.0,5.7%,
O=S(=O)(Nc1ccc(-c2cn3cccnc3n2)cc1)c1ccccc1,2.1,1.4,·,4.3,1.6%,
Cc1ccc2oc(C(=O)N(Cc3ccc(N(C)C)cc3)CC3CCCO3)c(C)c2c1 (stereo not given),13.0,4.6,·,·,·,
Cn1c(=O)c2nnn(/N=C(\c3ccccc3)C3CC3)c2n(C)c1=O,-0.2,-13.0,-39.8,7.0,0.0%,Arbovirus inh repeat=0.7
CCc1ccc(N2C(=O)/C(=C/c3cccs3)N(CC(=O)OC)C2=S)cc1,1.1,?,-25.8,-4.2,-1.1%,
C/C(CCC(C)C)=N\Nc1ccc(S(N)(=O)=O)cc1[N+](=O)[O-],-0.1,3.8,·,7.6,5.8%,
Cc1noc(/C=C/c2ccc(-c3ccccc3Cl)o2)c1[N+](=O)[O-],-0.4,-6.3,-4.3,2.5,2.3%,
CCOC(=O)Cc1csc(NC(=O)c2ccc(Cl)nc2)n1,0.9,56.0,-89.9,-2.3,33.9%,
O=C(O)c1cccc(NS(=O)(=O)/C=C/c2ccccc2)c1,-0.8,6.2,-33.7,4.1,-4.7%,
CSc1ccccc1NC(=O)COc1ccc(Cl)cc1,2.9,73.8,-6.0,-1.3,25.8%,
Nc1nc2c(ncn2[C@H]2C[C@H](O)[C@@H](CO)O2)c(=O)[nH]1,-0.9,-2.2,·,·,·,
CCCCC(=O)Nc1sc2c(c1C(=O)OCC)CCC(C=O)=C2Cl,19.9,97.2,2.0,-43.3,7.2%,
C=CCN1C(=O)CSc2ccc(C(=O)OCC)cc21,0.9,21.0,-38.2,-3.0,-2.9%,
COCCCNC(=O)CN(c1cc(C(F)(F)F)ccc1Cl)S(C)(=O)=O,-3.6,-1.1,·,·,-2.8%,
O=C(/C=C/c1cccc([N+](=O)[O-])c1)N1CCN(C(=O)c2ccco2)CC1,-0.7,6.9,-15.2,3.4,1.7%,
CCN(CC)c1ccc2cc(C=O)c(=O)oc2c1,-52.1,55.5,8.6,-0.8,8.4%,
Nc1ncc(-c2ccc([N+](=O)[O-])cc2)cn1,0.8,?,-38.5,-1.6,6.7%,
COc1ccc(NC(=O)CS(=O)CC(=O)Nc2cccnc2)cc1 (stereo not given),-0.2,-8.6,·,·,·,
O=C(NCCN1CCCC1)c1cc(-c2ccncc2)nc2ccc(S(=O)(=O)N3CCOCC3)cc12,0.6,-6.1,-17.8,2.3,-0.3%,
Cc1ccc(S(=O)(=O)NN2C(=O)/C(=C/c3cccc(F)c3)SC2=S)cc1,-0.5,-7.4,·,·,·,
CCCOc1c(Br)cc(C(=O)OCC(=O)NC2CC2)cc1OC,-5.2,-1.2,·,·,·,
Cc1ccc(-n2cc(CNC(C)c3cnn(C)c3)c(-c3ccc(F)cc3)n2)cc1 (stereo not given),-1.1,1.1,·,-13.1,2.8%,
CCCCOc1ccc(NS(=O)(=O)c2ccc(-n3cnnn3)cc2)cc1,0.0,-5.1,·,·,·,

# An excerpt from above in order of count of non-hydrogen atoms, ascending:
SMILES,RecA intein inh,Mtb betalactam,YopH inh,Arbovirus inh,Mtb H37Rv,others
Cc1sc2nc[nH]c(=S)c2c1-c1ccccc1,4.6,81.6,·,-11.7,32.3µM*,
CC(OC(=O)C1CC=CCC1C(N)=O)C(Cl)=C(Cl)Cl (stereo not given),-2.7,-12.6,-5.8,-2.9,-6.7%,Arbovirus inh repeat=7.5
Cc1cc(=O)[nH]c(SCC(=O)N2CCC(C(N)=O)CC2)n1,-1.6,-1.7,-25.0,3.7,0.2%,
Cc1ccc(S(=O)(=O)NN2C(=O)/C(=C/c3cccc(F)c3)SC2=S)cc1,-0.5,-7.4,·,·,·,

# Not all compounds are listed; count on the stated rates, not on these rows.
